Rce1 inh: inhibitors of yeast Ras-converting enzyme; AID 2563; 0.27% of 290,000 active; calls only; yeast membranes, quenched prenylated peptide cleavage fluorescence;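 active means fall in fluorescence gain of 50% or more versus controls, with final raw signal at or below 3038400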;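 further: plate controls were neutral control wells for no effect and wells lacking membranes for full effect; tested at 10 µM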
Target sequence (Q03530 whole entry, looked up): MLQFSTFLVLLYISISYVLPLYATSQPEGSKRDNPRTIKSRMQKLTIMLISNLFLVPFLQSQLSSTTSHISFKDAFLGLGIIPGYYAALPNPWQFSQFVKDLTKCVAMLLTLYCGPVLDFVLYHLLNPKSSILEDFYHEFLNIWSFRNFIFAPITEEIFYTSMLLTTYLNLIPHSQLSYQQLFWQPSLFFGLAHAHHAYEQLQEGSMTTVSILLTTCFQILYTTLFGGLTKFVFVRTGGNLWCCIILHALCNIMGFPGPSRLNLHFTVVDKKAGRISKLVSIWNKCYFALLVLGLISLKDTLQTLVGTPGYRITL
HIV Env fusion: inhibitors of HIV Env-mediated cell fusion. inhibition, % at 12.3 µM. AID 651610. 1.1% of 360,000 active. HeLa-JRFL Env/CEM21 cell fusion, luciferase;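 active means mean replicate inhibition score of at least 50 and every replicate individually at or above 50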;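 further: 0% = plate neutral controls and 100% = maraviroc near 300 nM; one replicate is shown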
Yeast UUG start: yeast start codon fidelity modulation. S. cerevisiae UUG-firefly luciferase reporter, luminescence/redox ratio. activity score, % at 18.7 µM. 0.13% of 350,000 active;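 active means replicate mean at a twofold rise or more, about +100% in these data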;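 further: firefly luciferase made from a UUG start codon reports start codon fidelity; reporter light over untreated wells divided by growth signal over untreated wells; some hits fall short of that in this replicate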
MT1-MMP act inh: blocks activation of human MT1-MMP; 0.061% of 360,000 active; HT1080 RFP-PRO-GFP cells, GFP/RFP ratio fluorescence, overnight; percent of plate control window, DMSO zero; AID 651647; GFP/RFP ratio change, % at 20 µM; P50281;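 active means GFP/RFP ratio change of at least 30% with cell ATP level not reduced by more than half and red fluorescence within 50% of control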; further: strong numbers were not always called active
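Assay system: HT1080 RFP-PRO-GFP cells | Dosing: 20 µM single dose, 1% DMSO | Incubation: Cells overnight before dosing, compound overnight, 37 °C, 5% CO2 | Evaluation: GFP/RFP fluorescence ratio | Control set: DMSO-only wells and HT1080 RFP-L50D-GFP cell wells as references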
eIF4H inh: inhibitors of RNA binding by human eIF4H; 0.94% of 290,000 active; Q15056; eIF4H fluorescence polarization binding assay; inhibition, % at 35 µM; AID 2012;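 active means 50% or more with normal probe brightness, or confirmed in later tests; about a fifth of its hits are not listed in these tables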;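 further: calls also rest on retests at 20 µM and on dose response follow-up; 0% = protein and probe with vehicle and 100% = probe without protein; strong numbers were not always called active; many hits fall short of the cut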
CSC inhib: blocks cancer stem cells | cancer stem cell-like cells viability, luminescence | inhibition, % at 7.5 µM | 1.1% of 300,000 active | AID 2717;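 active means mean at 75% or more and at least half the replicates too; tested in HMLE shEcad cells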;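 further: 0% = median of negative and 100% = median of positive control wells; the first replicate is given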
PABP polyA inh: PABP-poly(A) binding inhibition; P11940; PABP-poly(A) RNA binding, fluorescence polarization; inhibition, % at 35 µM; 1% of 290,000 active; AID 2014;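 active means 50% or more with normal probe brightness, or confirmed in later tests; about a fifth of its hits are not listed in these tables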;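 further: calls also rest on retests at 20 µM and on dose response follow-up; controls were probe without protein and protein plus probe with vehicle; some compounds called inactive have numbers as strong as hits; many hits fall short of the cut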
MT1-MMP act inh RFP: also measured in MT1-MMP act inh; calls as there; RFP signal change, %; measured here: RFP expression control read;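 0 = vehicle wells; hits needed this value within 50% of zero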
Active calls of the source: *; i = inactive; . = not tested or not shown; & = joins results of further samples; [ ] = remark or other dose. Not all compounds are listed; rates above refer to the full screens.

SMILES	Rce1 inh	HIV Env fusion	Yeast UUG start	MT1-MMP act inh	MT1-MMP act inh RFP	eIF4H inh	CSC inhib	PABP polyA inh
CCOC(=O)c1ccc(Oc2nc(OC)cc(OC)n2)cc1	i	-5	.	-4	-2	-11	.	-1
C/C(=N\NC(=O)COc1cc(C)cc(C)c1)c1cccc(NC(=O)C2CCC2)c1	.	-3	-3	2	-1	-2	7	-9
Cc1ccc(-c2nc3[nH]c(=O)cc(NC(=O)C(C)C)n3n2)cc1	.	1	8	5	0	-6	-12	-4
CN(C(=O)CSc1nnnn1-c1ccc(Cl)cc1)C1CCS(=O)(=O)C1 (stereo not drawn)	.	.	-3	-5	-3	.	-37	.
COc1ccc(NC(=O)Nc2ccc3nccnc3c2)cc1	i	.	-18	-3	0	-7	4	3
COc1ccc(-n2ccn(CC(=O)Nc3ccc(OC)cc3OC)c(=O)c2=O)cc1	i	-9	-6	-1	1	-12	-2	-12
Cc1cccc(C(=O)Nc2cccc(-c3cnc4ccccc4n3)c2)c1	i	-57	-10	8	-2	2	-1	-12
O=C(OCN1C(=O)c2ccccc2C1=O)C1CCCCC1	i	.	-1	0	3	-17	-5	-13
O=C(c1ccco1)N(Cc1cccs1)C1CCS(=O)(=O)C1 (stereo not drawn)	i	.	-20	0	3	-6	0	2
COc1ccc(NC(=O)CCCC2=NS(=O)(=O)c3ccccc3N2)cc1	i	23	-4	3	7	0	-7	-1
C#CC(CC)(CC)NC(=S)Nc1ccc(S(N)(=O)=O)cc1	i	-8	.	-6	-2	0	-1	14
c1ccc2c(c1)OCCOCCOCCO2	i	-5	3	-1	2	2	1	4
COc1ccc(S(=O)(=O)N(C)C[C@H]2Oc3ccc(NC(=O)NC(C)C)cc3C(=O)N([C@H](C)CO)C[C@@H]2C)cc1	.	-22[16.7 µM]	-1&1	4	4	.	.	.
CCOc1cc(S(=O)(=O)NC2CCCC2)ccc1Cl	i	.	-4	1	0	-3	.	-15
COc1cc(NC(=O)CSc2nnc3n2C(C)(C)Cc2ccccc2-3)cc(OC)c1	i	-127	-15	-5	-4	-5	-6	-9
O=C(COC(=O)c1ccc(F)cc1F)NCc1ccc2c(c1)OCO2	.	3	-2	1	6	.	6	.
O=C(Nc1cc(S(=O)(=O)Nc2ccc(Cl)cc2)ccc1N1CCCCC1)c1ccc(F)cc1	i	7	.	-24	-25	-14	90*	-16
Cc1cc2nc(/C=C/c3nc4cc(C)c(C)cc4[nH]3)[nH]c2cc1C	i	-12	-13	-1	4	-10	-10	-6
CCOC(=O)C1=C(C)NC(=O)NC1c1ccc([N+](=O)[O-])o1 (stereo not drawn)	i	28	-8	-1	1	8	-14	17
CC(=O)c1ccc(NC(=O)CCSCCC(=O)Nc2ccc(C(C)=O)cc2)cc1	i	.	-18	0	2	-12	-12	15
CC1CCCC(NC(=O)c2cccc(S(=O)(=O)N3CCN(c4ccccc4)CC3)c2)C1C (stereo not drawn)	i	13	-16	0	-11	.	-3	.
CCOC(=O)c1cnn(-c2ccccc2)c1-n1cccc1C(=O)C(=O)Nc1ccc(OC)cc1	i	.	2	-1	2	3	-14	1
Cn1/c(=N/NC(=O)c2ccccc2Br)sc2ccccc21	i	-36	.	-1	3	-10	-11	-14
Cc1cnc(CN(C)C(=O)C2CCC(=O)N(CCc3cccc(F)c3)C2)[nH]1 (stereo not drawn)	i	0	-19	-1	4	-1	.	5
CCCCCn1nc(C(=O)N(CCOC)c2c(N)n(CCCC)c(=O)[nH]c2=O)c2ccccc2c1=O	i	-2	-2	2	2	.	-2	.

No new results follow: an excerpt of the list.
SMILES	Rce1 inh	HIV Env fusion	Yeast UUG start	MT1-MMP act inh	MT1-MMP act inh RFP	eIF4H inh	CSC inhib	PABP polyA inh
COc1cc(NC(=O)CSc2nnc3n2C(C)(C)Cc2ccccc2-3)cc(OC)c1	i	-127	-15	-5	-4	-5	-6	-9
O=C(COC(=O)c1ccc(F)cc1F)NCc1ccc2c(c1)OCO2	.	3	-2	1	6	.	6	.

New compounds follow
SMILES	Rce1 inh	HIV Env fusion	Yeast UUG start	MT1-MMP act inh	MT1-MMP act inh RFP	eIF4H inh	CSC inhib	PABP polyA inh
Cc1cccc(CCNC(=O)CC2C(=O)NCCN2CC2CCCCC2)n1 (stereo not drawn)	i	14	5	4	7	24	-27	21
COc1cccc(CN2CCC2(C)C(=O)Nc2cccc3cccnc23)c1OC (stereo not drawn)	.	37	14	-1	-9	.	.	.
COc1ccc(-c2oc3ccccc3c2C(=O)OCc2ccc([N+](=O)[O-])cc2)cc1	i	12	-1	3	-2	-8	14	2
Cc1cc(Br)ccc1NC(=O)CN(C)C(=O)c1ccc(-n2cncn2)c([N+](=O)[O-])c1	.	14	3	-1	-2	.	8	.
CC(C)N1C(=O)C2ON(c3ccccc3)C(c3cccs3)C2C1=O (stereo not drawn)	i	12	-13	2	1	-12	1	-11
[O-][n+]1ccccc1/C=C/c1ccccc1	i	-3	.	0	1	.	0	.
CCCCCC(=O)Nc1ccc(S(=O)(=O)NC2=NCCCCC2)cc1	.	2	1	0	1	.	-12	.
CN(Cc1ccno1)Cc1cn(C)nc1-c1ccc(Oc2ccccc2)cc1	i	-3	.	-2	-5	-1	-12	-13
CC1(C)CC(=O)C=C(NCc2ccc(C(=O)O)cc2)C1	i	5	-8	4	9	2	-9	2
COc1c(C)cc(C(=O)C2CCCN(C(=O)Cn3ccc(C)n3)C2)cc1C (stereo not drawn)	i	18	-22	-3	0	-10	12	-2
C/C(CC(=O)NCc1ccco1)=N\NC(=O)C(c1ccccc1)c1ccccc1	i	.	-8	4	5	-6	6	-14
COc1cc(NS(=O)(=O)c2ccc(NC(=O)CSC3=NCCS3)cc2)nc(OC)n1	i	.	.	.	.	-8	6	11
CCOc1cc2nc(-c3ccc(OC)c(OC)c3)nc(N3CC(C)OC(C)C3)c2cc1OC (stereo not drawn)	i	.	.	.	.	-6	-6	-2
CC(C)NC(=O)C(=O)Nc1cc2c3c(c1)C(C)C(=O)N3CCC2 (stereo not drawn)	i	-12	-12	4	6	-9	0	-4
CCOC(=O)C1CCN(C(=O)CCS(=O)(=O)c2ccc3c(c2)CC(C)N3C(=O)CC)CC1 (stereo not drawn)	i	5	-8	5	6	-4	-4	-18
CCn1c(C(C)NC(=O)c2ccc(C)cc2)n[nH]c1=S (stereo not drawn)	i	10	-10	-2	4	8	-6	-4
Cc1nc2ccccc2n1S(=O)(=O)N(C)C	i	-49	-18	-1	-3	0	-3	1
Cc1ccccc1CN(C)C(=O)CNC(=O)c1ccc2ccccc2c1	i	-2	-9	0	0	-15	-7	-7
COC(=O)CNC(c1ccccc1)c1cc(Br)ccc1NS(=O)(=O)c1ccccc1 (stereo not drawn)	i	.	-1	0	2	4	-23	2
CCOC(=O)c1c(NC(=O)CS(=O)(=O)c2cn(CC)c3ccccc23)sc2c1CCCCC2	i	23	-9	2	-10	-1	.	-10
O=C(Nc1nccs1)C1CC(=O)N(c2ccccc2)C1 (stereo not drawn)	i	-13	-10	1	2	-2	-8	-1
CCC(C)NC(=O)c1ccc(NC(=O)CC2SC(N3CCCCC3)=NC2=O)cc1 (stereo not drawn)	.	-8	-5	1	2	.	-8	.
Cc1cc(-c2nnnn2-c2ccc(C(F)(F)F)cc2)no1	i	-9	.	-1	0	1	.	2
CCCCCC(=O)Nc1cc(N(C)C)nc2ccccc12	i	27	-7	-1	1	-3	-4	9
Cn1c2ccccc2c2cc(/C=N/NC(=O)c3cc(O)ccc3O)ccc21	i	-384	-5	-5	-11	86*	67	74*

Next records follow:
SMILES	Rce1 inh	HIV Env fusion	Yeast UUG start	MT1-MMP act inh	MT1-MMP act inh RFP	eIF4H inh	CSC inhib	PABP polyA inh
CC(C)OCCCNC(=O)CN1C(=O)CC(C)(C)S(=O)(=O)c2ccccc21	i	-22	-2	4	8	-3	7	8
N#C/C(=C\c1ccccc1)C(=O)NCCN1CCOCC1	i	-6	-12	1	0	-6	-13	-4
CCOC(=O)CSc1nnc(CNC(=O)c2cccc(C)c2)n1C	i	-9	.	1	3	8	0	8
COc1ccc(-c2csc3[nH]c(=S)n(-c4ccccc4)c(=O)c23)cc1OC	i	10	-30	4	5	4	-4	0
CCc1nccn1CCC(=O)N1CCCC(N2CCN(c3ccccc3F)CC2)C1 (stereo not drawn)	i	2	10	-2	3	8	27	-7
COc1ccc(S(=O)(=O)N2CCC(C(=O)Nc3nccs3)CC2)cc1	i	-6	-19	1	-1	-10	-9	10
Cn1c(=O)c2c(nc(Br)n2CCSc2nc3ccccc3o2)n(C)c1=O	.	16	-6	6	-3	5	.	-11
CC(Sc1nc(N)c(NC(=O)c2ccc(Br)o2)c(=O)[nH]1)C(=O)O (stereo not drawn)	i	.	-8	-3	3	-3	-14	2
Cc1sc(NC(=O)c2cccnc2)nc1-c1ccccc1	i	-29	.	1	-10	-3	-3	-2
COC(=O)C1=C(C)NC(=O)NC1c1ccccc1Cl (stereo not drawn)	i	6	-23	-1	1	1	-14	0
CN(C(=O)COC(=O)CNS(=O)(=O)/C=C/c1ccccc1)C1CCS(=O)(=O)C1 (stereo not drawn)	i	-1	-14	-1	-2	0	.	0
CCC(=O)Nc1ccccc1C(=O)OCC(=O)Nc1ccc(S(N)(=O)=O)cc1	i	-14	-13	12	1	1	0	7
C/C(=N\N(c1ccccc1)c1ccccc1)c1ccc(N)cc1	i	1	.	-2	-6	.	-6	.
COc1ccc(NS(=O)(=O)c2ccc(C)c(NC(=O)CNC(=O)c3ccco3)c2)cc1	.	-5	-14	4	2	.	.	.
CC(C)n1cnnc1SCC(=O)Nc1ccc(N2CCCCC2)cc1	i	-4	-12	4	-3	.	-23	.
CCn1c(C)cc(/C=C2\NC(=O)N(Cc3ccc(Cl)cc3)C2=O)c1C	i	1	-13	-12	4	-4	5	-3
COc1ccc(C(=O)NCCc2cc3ccc(C)c(C)c3[nH]c2=O)cc1OC	i	4	.	5	5	-1	7	-6
O=C(O)c1ccccc1C(=O)Nc1ccc(S(=O)(=O)NC2CCCCC2)cc1	i	7	-8	-6	-4	6	-11	4

In a second layout: results already given
compound | Rce1 inh | HIV Env fusion | Yeast UUG start | MT1-MMP act inh | MT1-MMP act inh RFP | eIF4H inh | CSC inhib | PABP polyA inh
COc1ccc(NS(=O)(=O)c2ccc(C)c(NC(=O)CNC(=O)c3ccco3)c2)cc1 | . | -5 | -14 | 4 | 2 | . | . | .
CC(C)n1cnnc1SCC(=O)Nc1ccc(N2CCCCC2)cc1 | i | -4 | -12 | 4 | -3 | . | -23 | .
CCn1c(C)cc(/C=C2\NC(=O)N(Cc3ccc(Cl)cc3)C2=O)c1C | i | 1 | -13 | -12 | 4 | -4 | 5 | -3

An excerpt from above in order of SMILES length, low to high:
SMILES	Rce1 inh	HIV Env fusion	Yeast UUG start	MT1-MMP act inh	MT1-MMP act inh RFP	eIF4H inh	CSC inhib	PABP polyA inh
Cn1c(=O)c2c(nc(Br)n2CCSc2nc3ccccc3o2)n(C)c1=O	.	16	-6	6	-3	5	.	-11
COc1ccc(C(=O)NCCc2cc3ccc(C)c(C)c3[nH]c2=O)cc1OC	i	4	.	5	5	-1	7	-6
CC(C)OCCCNC(=O)CN1C(=O)CC(C)(C)S(=O)(=O)c2ccccc21	i	-22	-2	4	8	-3	7	8
COc1ccc(NS(=O)(=O)c2ccc(C)c(NC(=O)CNC(=O)c3ccco3)c2)cc1	.	-5	-14	4	2	.	.	.

Screening data as filed in PubChem.
